Six1-Eya2 inh = qHTS Assay for Inhibitors of the Six1/Eya2 Interaction; AlphaScreen GST-Six1/His-Eya2 binding, biochemical; hits give low values; control for the full effect not named in the record; activity change, % (no concentration beside the values); 0.56% of 360,000 active; in the data active = activity change below about -65%; inconclusive = about -30% to -65%; inactive = above about -30%; note: % is set by controls: 0 for no effect and ±100 for the full control effect; compound concentration not given in the record
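Homogeneous AlphaScreen proximity assay pairing GST-Six1 with His-tagged Eya2 (added as 5X mix: 250 nM and 500 nM) in 50 mM Tris pH 8.0, 300 mM NaCl, 1 mM TCEP. Glutathione donor and nickel acceptor beads; 1 h, 37 °C, dark.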
CtBP-E1A blk = qHTS Assay for Inhibitors of the CtBP/E1A Interaction | activity change, % (no concentration beside the values) | AlphaScreen GST-E1A/His-CtBP binding, 1536-well; hits give low values; control for the full effect not named in the record | 0.49% of 340,000 active | AID 651724, 2012 | CtBP / adenovirus E1A interaction (AlphaScreen); in the data active means activity change below about -65%; inconclusive means about -30% to -65%; inactive means above about -30%; note: % is set by controls: 0 for no effect and ±100 for the full control effect; compound concentration not given in the record
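Homogeneous bead-based format: GST-tagged E1A captured on glutathione donor beads, His-tagged CtBP on nickel acceptor beads; compounds precede bead addition by 2 h at 37 °C.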
TRPV1 PAM = HTS Assay for Compounds that Act as Potentiators of the Vanilloid Receptor 1; TRPV1-expressing cells, Fluo-8 calcium influx, capsaicin EC20 potentiation; host cell line not named in the record; control for the full effect not named in the record; AID 540277, 2011; potentiation, % at 8.33 µM; 0.02% of 320,000 active; Transient receptor potential cation channel subfamily V member 1 (Homo sapiens), Q8NER1; active means potentiation above 80%; inconclusive means 30% to 80%; inactive means below 30%; note: 0% is about no effect
Target sequence (Q8NER1 whole entry, looked up): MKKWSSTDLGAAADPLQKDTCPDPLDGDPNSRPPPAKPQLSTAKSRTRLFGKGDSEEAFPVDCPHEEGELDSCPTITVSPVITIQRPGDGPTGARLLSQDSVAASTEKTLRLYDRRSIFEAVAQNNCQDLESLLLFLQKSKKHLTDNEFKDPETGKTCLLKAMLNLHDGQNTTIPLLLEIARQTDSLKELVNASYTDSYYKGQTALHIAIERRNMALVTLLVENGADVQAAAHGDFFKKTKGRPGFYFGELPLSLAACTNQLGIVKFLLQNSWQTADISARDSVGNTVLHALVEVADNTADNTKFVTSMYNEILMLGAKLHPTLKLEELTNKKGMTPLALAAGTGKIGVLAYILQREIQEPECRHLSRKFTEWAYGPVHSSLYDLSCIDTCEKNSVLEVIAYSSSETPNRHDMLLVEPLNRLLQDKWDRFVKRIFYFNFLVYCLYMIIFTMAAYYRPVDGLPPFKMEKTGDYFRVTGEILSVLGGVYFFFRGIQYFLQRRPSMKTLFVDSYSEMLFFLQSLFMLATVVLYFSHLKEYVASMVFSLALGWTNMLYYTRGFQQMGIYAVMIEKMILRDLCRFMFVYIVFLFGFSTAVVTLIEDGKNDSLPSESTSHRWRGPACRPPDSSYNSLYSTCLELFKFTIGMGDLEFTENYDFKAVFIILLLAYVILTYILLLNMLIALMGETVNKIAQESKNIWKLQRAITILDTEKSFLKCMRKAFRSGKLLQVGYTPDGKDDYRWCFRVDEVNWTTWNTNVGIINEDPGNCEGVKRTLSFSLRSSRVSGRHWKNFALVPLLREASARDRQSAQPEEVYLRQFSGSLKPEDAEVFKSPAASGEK
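Fluo-8 calcium influx in TRPV1-expressing cells, kinetic read (ex 480/em 520 nm). Compound added and read 3 min for agonist activity, followed by capsaicin at EC20 final and 2 min further read for enhancement.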
PINK1 expr mod = A Quantitative High throughput Screen to Identify Chemical Modulators of PINK1 Expression; PINK1 immunofluorescence, high-content cytometry, 24 h; Potency, µM (series often up to 76.6 µM), inactives show at the top dose activation (PINK1 increase), hits mostly activators; 0.2% of 410,000 active; AID 624263, 2012; active = well fitted activation curve with a large enough effect; inconclusive = small, poorly fitted or top-dose-only effect; inactive = flat fitted curve, though single readings scatter; cell line not stated here;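 note: potency is the fitted concentration of half-maximal effect; % of control where 0% means no effect; nearly all actives have a fitted effect of over 65% in size; a mitochondrial uncoupler was the plate control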
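Fluorescence from anti-PINK1 antibody, together with nuclear and cell stains, was scanned on a laser-scanning cytometer. Before staining, stable-line cells were incubated 24 hours with compounds at 5 concentrations; primary antibody 12 h at 10 degrees C.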
Sfp inh = qHTS Assay for Inhibitors of Bacillus subtilis Sfp phosphopantetheinyl transferase (PPTase); AID 1490, 2009; 3.5% of 310,000 active; Potency, µM, for inactives: max response, negative = inhibition, hits mostly inhibitors; Biochemical Sfp PPTase activity, qHTS; active = well fitted inhibition curve with a large enough effect; inconclusive = small, poorly fitted or top-dose-only effect, or another doubt; inactive = no such curve, though single readings can be large or run the other way;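 note: the enzyme is Sfp with the accession as filed and its product quenches rhodamine fluorescence; potency is the fitted concentration of half-maximal effect; 0% = enzyme reaction without inhibitor and -100% = no enzyme wells; top concentration of the series not given in the record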
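Buffer: 50 mM Hepes-Na pH 7.6, 10 mM MgCl2, 0.01% Nonidet P-40, 0.01% BSA. Enzyme 15 nM, pre-exposed to compound 15 min; substrates then added and fluorescence change tracked over 30 min.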
D2 PAM = Beta-Arrestin HTS for Positive Allosteric Modulators of the Human D2 Dopamine Receptor: Potentiators; D(2) dopamine receptor (Homo sapiens), P14416; DiscoveRx D2 beta-arrestin cells, luminescence, 90 min; 100% = 57 uM dopamine signal; potentiation, % (no concentration beside the values); 0.23% of 360,000 active; AID 624464, 2012; active = potentiation of 50% or more; inconclusive = 30% to 50%; inactive = 30% or less;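 note: compound concentration not given in the record; tested on top of an EC20 dose of dopamine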
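PathHunter beta-arrestin assay in DiscoveRx D2 cells. Compounds were added with an EC20 of dopamine (50 nM final) for 90 min at 37 deg C. Luminescence was read 1 h after detection reagent, with 57 uM dopamine as the EC100 control.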
D2 agonist = Beta-Arrestin HTS for Positive Allosteric Modulators of the Human D2 Dopamine Receptor: Agonists | D(2) dopamine receptor (Homo sapiens), P14416 | DiscoveRx PathHunter D2 beta-arrestin, luminescence, 90 min; 100% = 57 uM dopamine signal | activation, % (test concentration not listed) | 0.084% of 360,000 active; in the data active = activation above about 40%; inconclusive = about 15% to 40%; inactive = below about 15%; note: compound concentration not given in the record; the text of the record calls up to 30% inactive
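Agonist mode: compounds alone added to overnight-plated D2 PathHunter cells for 90 min at 37 C, with 57 uM final dopamine (EC100) defining full response. Beta-arrestin recruitment detected by chemiluminescent reagent, read after 1 h at ambient temperature.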
Starred values were filed as active, the others as inactive; ? = inconclusive; / = no result given; [ ] = another dose, or the depositor's remark.

SMILES	Six1-Eya2 inh	CtBP-E1A blk	TRPV1 PAM	PINK1 expr mod	Sfp inh	D2 PAM	D2 agonist
O=c1c([N+](=O)[O-])c(NC2CCCCC2)c2ccccc2n1-c1ccccc1	-2	0	0	-0.5%[38.3 µM]	17%	-13	1.4
Fc1ccc(-c2nc(-c3cnccn3)no2)c(Cl)c1	12	-5	0	-0.7%	4%	-16	-1.4
CCOc1ccccc1OCC(=O)Nc1cc2c(cc1C(=O)O)OCCCO2	6	1	6	0.7%	79µM*	-6	-4.4
Cc1cc(C(F)(F)F)nn1CC(=O)NCC1CCCO1 (stereo not drawn)	4	1	2	?	1%	-2	0.1
COc1ccc(-c2nc3ccccc3c(=O)n2CCN2CCOCC2)cc1	-1	-1	0	/	14%	10	-1.0
CCOc1ccc(-c2cnc3n2CCC3)cc1	-5	-19	2	5.8%	18%	5	-7.7
COCCn1c(C)cc(O)c(C(=O)Nc2cccc(Cl)c2)c1=O	8	/	-6	1.5%	7%	2	2.6
CCOC(=O)C1=NOC(Cn2cc(C(C)=O)c(=O)[nH]c2=O)C1 (stereo not drawn)	-8	-23	0	1.2%	16%	-3	-4.0
O=C(Nc1ccn(Cc2ccccc2F)n1)c1ccc(COc2cccc(Br)c2)cc1	2	9	-6	1.9%	26%	-7	1.4
O=C(O)c1cc(S(=O)(=O)Nc2ccccc2C(=O)O)ccc1O	20	-6	-3	-0.1%	-7%	-8	-3.6
CSCCC(NC(=O)COc1ccccc1)C(=O)N(C)CC(=O)Nc1ccc(Cl)cc1 (stereo not drawn)	-8	15	-2	0.4%	/	-11	0.5
O=C(c1ccco1)N1CCc2[nH]nc(-c3ccc(Cl)cc3)c2C1	-7	-30	21	0.7%	0%	-2	2.1
CCSc1nc2c(c(=O)[nH]c(=O)n2C)n1CC(O)COc1ccccc1 (stereo not drawn)	-5	/	5	-0.2%	10%	-1	-1.0
CC(C)NC(=O)C1(C)CCCN1C/C=C/c1ccccc1 (stereo not drawn)	-1	1	/	0.1%	/	-1	3.6
CN(Cc1nc2ccccc2n1C)C(=O)c1ccco1	2	6	?	-0.3%	6%	7	0.5
CC(C)C[C@H]1CNC(=S)N1CC1CCCN1C[C@H](CC(C)C)N1C[C@H](CC(C)C)N(CCc2ccccc2)C1=S (stereo partly drawn)	-1	-1	/	5.3%	/	-6	-1.9
CCOc1ccc(-c2cc(C(=O)N3CCN(c4ccccn4)CC3)c3ccccc3n2)cc1	0	7	-12	?	?	-6	-0.1
CN1CC(c2ccccc2)C2(SC(=S)N(Cc3ccco3)C2=O)C12C(=O)Nc1ccccc12 (stereo not drawn)	-23	-21	-27	8.5%[38.3 µM]	0%	3	-2.0
Cc1cc(Cl)cc2sc(=S)[nH]c12	-3	-1	/	-1.8%	/	-3	-3.2
Cc1ccc(OCCn2c(CCNC(=O)C(C)C)nc3ccccc32)cc1	-7	-6	-7	-1.5%	23%	-25	-5.9
O=[N+]([O-])c1cc(NS(=O)(=O)c2ccc(Cl)nc2)ccc1Cl	3	-2	9	?	/	23	-3.0
CCc1ccc(C2C(C(C)=O)=C(C(=O)OC)Nc3nnnn32)cc1 (stereo not drawn)	1	0	-6	-0.9%	20%	5	-2.5
S=C(NCCCN1CCOCC1)Nc1ccc(-c2nc3ccccc3[nH]2)cc1	-15	-23	-1	0.0%	35µM*	-12	0.7
Cc1ccc(-c2nnc(N3CCN(c4ccccn4)CC3)c3ccccc23)cc1	1	0	-13	-2.7%	?	-5	-3.7
CCC(=O)Nc1sc2c(c1C(N)=O)CCC2	-2	-5	27	-3.2%[38.3 µM]	9%	-7	-5.9

Additional compounds.
SMILES	Six1-Eya2 inh	CtBP-E1A blk	TRPV1 PAM	PINK1 expr mod	Sfp inh	D2 PAM	D2 agonist
COc1ccc(-c2nc3c(C)cc(Br)cn3c2CC(C)(C)C)cc1OC	-17	-7	/	3.4%	/	-10	-7.3
CCN1CCN(CC2CC3C=CC2C3)CC1 (stereo not drawn)	6	-6	-3	-2.3%	?	-9	-0.3
CC(C)Oc1ccc(CCC(=O)NNC(=S)Nc2ccccc2)cc1	1	-4	-10	0.1%	6%	-6	-4.6
COc1ccc(CCN(C)C(=O)CCNS(=O)(=O)c2ccccc2C(F)(F)F)cc1OC	4	/	3	1.0%	/	6	-1.1
COc1ccc(CCNC(=O)CCOc2ccc(C(C)(C)C)cc2)cc1OC	0	5	/	-1.9%	/	-1	-2.8
COc1cccc(COc2ccc3c(C)c(Cc4ccccc4)c(=O)oc3c2)c1	14	15	/	-1.3%	/	-5	0.3
COc1ccc(C2=NOC(C(=O)NCc3ccccn3)C2)cc1 (stereo not drawn)	5	2	3	3.6%	14%	9	-2.4
COc1ccccc1N1CC(C(=O)NCC2COc3ccccc3O2)CC1=O (stereo not drawn)	-1	-2	/	-0.4%	/	-1	5.7
CCN(CC(=O)NCc1ccc(F)cc1)C(=O)CN1CCN(c2ccccc2OC)CC1	3	-20	4	0.0%	9%	-27	-4.2
COc1cc(C(=O)NNC(=O)c2ccc3ccccc3n2)cc(OC)c1OC	-7	-15	16	1.6%	/	3	11
Cc1ccc(/C([O-])=C(/C(=S)NCc2ccccc2)[n+]2cccc(CO)c2)cc1[N+](=O)[O-]	-14	-1	0	4.9%	?	-5	-3.5
O=C(NCCCCCCNC(=O)c1ccncc1)c1ccncc1	-1	/	-1	2.7%	-1%	-4	-3.3
C(=N\N1CCN(Cc2cccc3ccccc23)CC1)/c1cccs1	?	-19	24	4.0%	0%	-19	-4.7
NS(=O)(=O)c1ccc(NC(=S)N2CCN(c3cccc(Cl)c3)CC2)cc1	0	-1	-5	8.1%	13µM*	-11	3.8
COc1ccccc1C(=O)N1CCNC(=O)C1CC(=O)Nc1cccc(C)c1 (stereo not drawn)	5	1	-10	-3.8%[38.3 µM]	17%	-1	2.4
CCOC(=O)c1ccc(CSc2nncn2N)o1	4	-23	-13	-1.3%	3%	14	-2.7
C=C(C)COc1ccc2c3c(c(=O)oc2c1OCC(=C)C)CCC3	-4	0	-10	?	-9%	8	2.1
COc1cc([N+](=O)[O-])ccc1NC(=S)N1CCOCC1	3	0	3	1.4%	-5%	12	-3.5
COc1ccc(Cn2cc(CN3CC(N4CCN(CCN(C)C)CC4)CS3(=O)=O)nn2)cc1 (stereo not drawn)	1	4	/	-0.3%	/	/	/
CCOc1ccc(S(=O)(=O)NCCC(=O)NCC(C)(C)N2CCOCC2)cc1	1	4	10	-2.0%	/	-1	-0.2
Cc1ccccc1OCC(=O)NNC(=O)c1ccoc1C	3	8	6	-1.8%	/	15	-5.5
COc1cccc(CNc2ccc(F)c(Cl)c2)c1	11	14	8	3.6%[38.3 µM]	4%	-4	2.6
Cc1ccc2nc3c(cc(S(=O)(=O)c4ccccc4)c(=N)n3C3CCCC3)c(=O)n2c1	6	8	/	-1.1%	/	-3	-2.3
COc1cccc(CNC(=O)CCSCc2ccccc2F)c1	2	-1	-21	1.7%	15%	-8	-4.0
COc1ccc(CCN2C(=O)CC(NCc3ccc4c(c3)OCO4)C2=O)cc1OC (stereo not drawn)	4	3	?	-2.2%	11%	4	-2.8

A draw from above in order of molecular weight, highest first:
SMILES	Six1-Eya2 inh	CtBP-E1A blk	TRPV1 PAM	PINK1 expr mod	Sfp inh	D2 PAM	D2 agonist
COc1ccc(CCN(C)C(=O)CCNS(=O)(=O)c2ccccc2C(F)(F)F)cc1OC	4	/	3	1.0%	/	6	-1.1
NS(=O)(=O)c1ccc(NC(=S)N2CCN(c3cccc(Cl)c3)CC2)cc1	0	-1	-5	8.1%	13µM*	-11	3.8
COc1ccccc1N1CC(C(=O)NCC2COc3ccccc3O2)CC1=O (stereo not drawn)	-1	-2	/	-0.4%	/	-1	5.7
Cc1ccc(-c2nnc(N3CCN(c4ccccn4)CC3)c3ccccc23)cc1	1	0	-13	-2.7%	?	-5	-3.7
Cc1ccc(OCCn2c(CCNC(=O)C(C)C)nc3ccccc32)cc1	-7	-6	-7	-1.5%	23%	-25	-5.9
O=c1c([N+](=O)[O-])c(NC2CCCCC2)c2ccccc2n1-c1ccccc1	-2	0	0	-0.5%[38.3 µM]	17%	-13	1.4
O=C(NCCCCCCNC(=O)c1ccncc1)c1ccncc1	-1	/	-1	2.7%	-1%	-4	-3.3
Fc1ccc(-c2nc(-c3cnccn3)no2)c(Cl)c1	12	-5	0	-0.7%	4%	-16	-1.4
CN(Cc1nc2ccccc2n1C)C(=O)c1ccco1	2	6	?	-0.3%	6%	7	0.5

(continued)
SMILES	Six1-Eya2 inh	CtBP-E1A blk	TRPV1 PAM	PINK1 expr mod	Sfp inh	D2 PAM	D2 agonist
O=C(COC(=O)CCNS(=O)(=O)c1ccccc1)NC(=O)c1ccccc1	16	-3	11	2.1%	/	-13	0.1
CCCCc1cc(=O)oc2cc(O)cc(O)c12	-3	-5	8	0.0%	-9%	-10	-2.5
C=CCn1c(=N)n(CC(=O)OCC)c2ccccc21	2	10	-5	3.0%	21%	2	0.1
CCCc1ccc(C(O)c2ncc(-c3cccc(F)c3)[nH]2)cc1 (stereo not drawn)	-4	0	/	2.2%	/	-14	-2.7
COc1cc(C(=O)N[C@H](C(=O)NC(C)C23CC4CC(CC(C4)C2)C3)C(C)C)cc(OC)c1OC (stereo partly drawn)	26	5	-12	-2.1%	8%	-37	-4.6
Cn1c(-c2ccccc2)c(C=O)c2ccccc21	4	-2	3	0.0%	-3%	-15	-18
CCc1cc2c(-c3ccccc3)cc(=O)oc2cc1OC(C)C(=O)O (stereo not drawn)	4	/	8	-0.7%	4%	?	1.8

Bioassay records: PubChem BioAssay, National Center for Advancing Translational Sciences (NCATS)
